HIV TAR-Tat: HIV-1 TAR-Tat binding disruption; HIV-1 TAR RNA, Tat peptide displacement FRET; active compounds read high; actives 0.6% (n = 100,000); AID 1259389; z-score (no concentration beside the values);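 also: score is relative to mean and SD of negative controls; some compounds called inactive have numbers as strong as hits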
CDC25B-CDK2 inh: human CDC25B-CDK2/CyclinA binding inhibition; z-score (no concentration beside the values); HTRF CDC25B-CDK2/CyclinA binding, anti-His/anti-Flag; active compounds read high; actives 0.72% (n = 94,000);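 also: score is relative to mean and SD of negative controls; strong numbers were not always called active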
An asterisk follows results filed as active; . = no result given.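 The calls were made as follows: active = z-score from 3 up in half or more of its runs; inactive = the rest.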

| # | Molecule | HIV TAR-Tat | CDC25B-CDK2 inh |
| --- | --- | --- | --- |
| 1 | O=C1CC(c2cccs2)CC2=C1C(c1coc3ccccc3c1=O)Nc1ccccc1N2 (centres undefined) | . | -0.86 |
| 2 | Cc1ccc2nc(-c3ccccn3)[nH]c2c1 | . | -0.27 |
| 3 | COc1ccc(C(=O)Oc2ccc(-n3cnnn3)cc2)cc1 | 0.83 | -1.4 |
| 4 | CC(C)(C)c1ccc(C(=O)NCC(=O)OCC(=O)c2ccc(-c3ccccc3)cc2)cc1 | . | -9.6 |
| 5 | COc1ccc(S(=O)(=O)Nc2nnc(C(C)C)s2)cc1 | -1 | 1.6 |
| 6 | CCC(C)n1nnc2c(=O)oc3ccccc3c21 (centres undefined) | 0.85 | -1.5 |
| 7 | c1ccc(N2CCN(c3nn4nnnc4c4ccccc34)CC2)cc1 | -0.35 | -4 |
| 8 | CCN(CC)CCCN1C(=O)c2ccc(-c3ccco3)n2CC1(C)C(=O)NC1CCCCC1 (centres undefined) | -0.56 | . |
| 9 | Cc1ccc(C(=O)CSc2ncn[nH]2)cc1 | 0.16 | -1.4 |
| 10 | COc1ccc(N2CCN(S(=O)(=O)c3ccc4c(c3)CC(=O)N4C)CC2)cc1 | 0.08 | . |

Next compounds
| # | Molecule | HIV TAR-Tat | CDC25B-CDK2 inh |
| --- | --- | --- | --- |
| 11 | O=C(Oc1cccc(N2CCOCC2)c1)c1ccc(CSC(=S)N2CCSCC2)cc1 | . | 0.65 |
| 12 | CN(C)c1ccc(CN2CCc3nc(N4CCN(c5ccccc5F)CC4)ncc3C2)cc1 | 0.56 | . |
| 13 | Nc1nc(SCC(=O)NCCO)nc2sc3c(c12)CCCC3 | -1.2 | 0.56 |
| 14 | CCN(CC)C(=O)c1cc2c(=O)n3cccc(C)c3nc2s1 | . | 0.5 |
| 15 | CCn1nc(NS(=O)(=O)c2ccc(C)cc2)c2cc3cccc(C)c3nc21 | -0.71 | -0.91 |
| 16 | Cc1c(NCC(=O)N(c2ccccc2)C2CCCCC2)cccc1[N+](=O)[O-] | . | -1.6 |
| 17 | CC1(C)CC(=O)C2=C(C1)NC1=C(C(=O)CC(C)(C)C1)C2c1cccs1 | . | 2.6 |
| 18 | CC(=O)Oc1ccc(N2C(=O)C3CC(C)=C(C)CC3C2=O)cc1 (centres undefined) | 1.5 | -1.4 |
| 19 | CCC(C)NC(=O)c1cc(C2CC2)[nH]n1 (centres undefined) | -1 | . |
| 20 | Fc1ccc(COc2cccc3ccc(N4CCCC4)nc23)cc1 | 1.2 | . |

(next part)
| # | Molecule | HIV TAR-Tat | CDC25B-CDK2 inh |
| --- | --- | --- | --- |
| 21 | CC12COC3(C(=O)Nc4ccccc4Cl)CC1CCC32C (centres undefined) | . | -1 |
| 22 | CCOc1ccccc1-c1nc(-c2ccncc2)no1 | -1.4 | -1.1 |
| 23 | COc1ccc2c(c1)-c1c(sn(-c3ccccc3OC)c1=S)C(C)(C)N2 | 1.8 | -7.2 |
| 24 | O=c1ccc(-c2ccc(S(=O)(=O)Nc3ccc(Br)cc3F)o2)n[nH]1 | 18* | . |
| 25 | COc1ccc(-c2nc(C#N)c(NCCc3ccccc3)o2)cc1 | 0.21 | -0.88 |
| 26 | O=c1cc(C(F)(F)F)[nH]n1-c1nc2ccccc2s1 | 1.5 | 0.7 |
| 27 | COC(=O)c1cc(-c2ccc(OC)c(OC)c2)c2c(=O)n(C)c(=O)n(C)c2n1 | 0.67 | 0.25 |
| 28 | COc1ccccc1C1C(C#N)=C(C)NC2=C1C(=O)CC(c1ccccc1)C2 (centres undefined) | 3.3 | -1.6 |
| 29 | CC(C)OCCCNc1sc(S(C)(=O)=O)nc1S(=O)(=O)c1ccc(Cl)cc1 | -0.67 | -2 |
| 30 | CCc1nnc(NC(=O)c2cc3ccccc3c(=O)o2)s1 | 1.9 | -1.9 |

Entries of single compounds, quoted from the list. Order of values: HIV TAR-Tat	CDC25B-CDK2 inh
Results for O=c1cc(C(F)(F)F)[nH]n1-c1nc2ccccc2s1 → 1.5	0.7
Results for COC(=O)c1cc(-c2ccc(OC)c(OC)c2)c2c(=O)n(C)c(=O)n(C)c2n1 → 0.67	0.25
Results for CCOc1ccccc1-c1nc(-c2ccncc2)no1 → -1.4	-1.1
Results for CC12COC3(C(=O)Nc4ccccc4Cl)CC1CCC32C (centres undefined) → .	-1
Results for CCc1nnc(NC(=O)c2cc3ccccc3c(=O)o2)s1 → 1.9	-1.9

Some of these compounds in order of molecular weight, lowest first.
| # | Molecule | HIV TAR-Tat | CDC25B-CDK2 inh |
| --- | --- | --- | --- |
| 26 | O=c1cc(C(F)(F)F)[nH]n1-c1nc2ccccc2s1 | 1.5 | 0.7 |
| 30 | CCc1nnc(NC(=O)c2cc3ccccc3c(=O)o2)s1 | 1.9 | -1.9 |
| 21 | CC12COC3(C(=O)Nc4ccccc4Cl)CC1CCC32C (centres undefined) | . | -1 |
| 28 | COc1ccccc1C1C(C#N)=C(C)NC2=C1C(=O)CC(c1ccccc1)C2 (centres undefined) | 3.3 | -1.6 |
| 27 | COC(=O)c1cc(-c2ccc(OC)c(OC)c2)c2c(=O)n(C)c(=O)n(C)c2n1 | 0.67 | 0.25 |
| 29 | CC(C)OCCCNc1sc(S(C)(=O)=O)nc1S(=O)(=O)c1ccc(Cl)cc1 | -0.67 | -2 |

(list continues)
| # | Molecule | HIV TAR-Tat | CDC25B-CDK2 inh |
| --- | --- | --- | --- |
| 31 | C=CCSC1=C(C#N)C(c2ccc(O)c(OC)c2)CC(=O)N1 (centres undefined) | 0.32 | -0.64 |
| 32 | CCc1nnc2sc(-c3cccc(F)c3)nn12 | -0.29 | -0.46 |
| 33 | Cc1cc(N)n2ncc(-c3ccccc3)c2n1 | 1.4 | -3.2 |
| 34 | CN1[C@@H]2CC(OC(=O)[C@H](CO)c3ccccc3)C[C@H]1[C@@H]1O[C@@H]12 (some centres undefined) | 0.97 | . |
| 35 | CC[C@@H](C(=O)[C@@H](C)[C@@H](O)[C@H](C)[C@@H]1O[C@@H]([C@@H](CC)C(=O)O)CC[C@@H]1C)[C@H]1OC2(C=C[C@@H](O)[C@]3(CC[C@@](C)([C@H]4CC[C@](O)(CC)[C@H](C)O4)O3)O2)[C@H](C)C[C@@H]1C (some centres undefined) | 2.4 | . |
| 36 | O=C(Nc1ccc(Cl)cc1)N1CCSCC1 | 0.98 | -1.4 |

Single entries from above:
Result for #35 under HIV TAR-Tat: 2.4
Result for #36 under CDC25B-CDK2 inh: -1.4
